Bfl-1 A1 inh: inhibitors of the anti-apoptotic protein A1, read as caspase activation; MEF A1-2A-BIM cells, Caspase-Glo 3/7 luminescence, 3 h; percent of clofoctol response, vehicle zero; caspase activation, % (no concentration beside the values); actives 0.066% (n = 330,000); AID 2462;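 active = over half of replicate activation scores above 10%, or exactly half above 10 with the replicate mean above 10; inconclusive = replicate mean below 10 yet half the replicates above 10; inactive = over half of replicates below 10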;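 note: wells of about 30 µL received 50 nL stock; many hits fall short of the cut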
Ecoli rRNA inh: inhibitors of bacterial rRNA selective over humanized ribosomes; E. coli WT GFP vs humanized-ribosome RFP mutants, fluorescence, 24 h; stronger effect = lower value; DMSO median 0, no signal -100; GFP signal change (wild-type ribosome), % (no concentration beside the values); actives 1.6% (n = 350,000); AID 720706;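 active = significant combined selectivity score with lowered wild-type GFP, culture density cut under 30%, mutant RFP and density less affected; inactive = any of these conditions unmet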; note: one replicate is shown; some compounds called inactive have numbers as strong as hits
Beta apoptosis: beta cell apoptosis inhibition; INS-1E cytokine-induced death, ATP luminescence, 48 h; percent of positive-control rescue, neutral wells zero; protection from apoptosis, % (concentration not given with the values); actives 0.8% (n = 300,000);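 active = all replicates at 75% or more, or half of them and the mean; inconclusive = half reach 75% but not the mean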;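 note: 0% = cytokine-treated negative control wells and 100% = positive control rescue; higher means more ATP so stronger rescue from cytokine killing; wells of about 40 µL received 100 nL stock; the first replicate is given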
Calb FLC: C. albicans growth modulation with fluconazole; C. albicans CaCi-2 (fluconazole-resistant clinical isolate) + fluconazole, Alamar Blue growth, 48 h; growth inhibition, % (no concentration beside the values); actives 0.57% (n = 300,000);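 active = most replicates above 75%; inconclusive = exactly half above 75%; inactive = most below 75%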;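 note: all wells also contain fluconazole at 8 µg/ml as a sub-toxic cotreatment; 0% = median of DMSO wells and 100% = median of geldanamycin control wells; wells of about 8 µL received 7.5 nL stock; the first replicate is given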
Vif A3G: HIV-1 Vif–A3G interaction blockers – biochemical, TR-FRET, GST-Vif 1-94, biotin-A3G peptide, dose response retest, primary screen (AID 1117319); TR-FRET GST-Vif / biotin-A3G peptide binding; higher % means a stronger effect; test concentration not given here; strong numbers were not always called active; inhibition, %; hits with a dose series show IC50 in µM; actives 0.57% (n = 260,000);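 active = above the screen mean plus three standard deviations and confirmed in dose response; inconclusive = results disagree or hit not tested in dose response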;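 note: Vif residues 1-94 fused to GST binding biotinylated APOBEC3G peptide 110-148; 0% = full assay without inhibitor and 100% = GST in place of GST-Vif; retest series ran down from 100 µM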
MLL AF4-AF9 inh: MLL-AF4/AF9 protein interaction inhibition; actives 0.47% (n = 350,000); AlphaScreen, biotin-AF4 peptide binding to FLAG-AF9; P42568; inhibition, % at 10 µM;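 active = every replicate reaching a set inhibition limit, whatever the replicate mean, cut at about 25% in these data; inconclusive = mean inhibition reaches that limit but some replicates miss it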;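 note: 0% = plate neutral control median and 100% = total signal loss; the record names both 10 and 1 µM as test concentration; the first replicate is given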
Target sequence (P42568 whole entry, looked up): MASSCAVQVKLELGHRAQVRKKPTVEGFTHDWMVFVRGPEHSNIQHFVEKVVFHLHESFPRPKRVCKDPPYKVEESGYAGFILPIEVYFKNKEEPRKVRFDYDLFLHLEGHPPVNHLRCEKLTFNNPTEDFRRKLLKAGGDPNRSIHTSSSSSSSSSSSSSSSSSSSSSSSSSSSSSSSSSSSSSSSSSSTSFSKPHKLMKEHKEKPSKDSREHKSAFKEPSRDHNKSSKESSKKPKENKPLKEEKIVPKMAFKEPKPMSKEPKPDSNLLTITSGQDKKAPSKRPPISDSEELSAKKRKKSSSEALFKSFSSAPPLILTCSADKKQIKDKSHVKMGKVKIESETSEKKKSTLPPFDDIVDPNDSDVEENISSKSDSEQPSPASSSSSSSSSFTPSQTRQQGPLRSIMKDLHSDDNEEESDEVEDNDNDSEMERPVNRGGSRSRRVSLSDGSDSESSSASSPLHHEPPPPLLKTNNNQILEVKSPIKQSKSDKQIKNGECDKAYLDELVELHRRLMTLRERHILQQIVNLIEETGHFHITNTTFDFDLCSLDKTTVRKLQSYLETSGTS
RanGTP-Impb inh: disruptors of Ran-importin-beta complex formation – biochemical, FRET, CFP-Ran, YFP-importin-beta, homogeneous, primary screen; actives 1.1% (n = 300,000); cell-free CFP-Ran/YFP-importin-beta FRET ratio; inhibition, % (test concentration not listed);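 active = most replicates above 15%; inconclusive = exactly half above 15%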;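 note: 0% = DMSO wells and 100% = Ran loaded with GDP instead of GTP; wells of about 40 µL received 100 nL stock; the first replicate is given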
T cruzi inh: T. cruzi replication inhibition; T. cruzi beta-gal in NIH3T3, luminescence, 90 h; inhibition, % (test concentration not listed); actives 1.4% (n = 300,000);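 active = mean inhibition across valid replicates above about 55%, limit read from the data; inconclusive = mean below that limit but half or more replicates reach it; inactive = mean below it, under half of replicates reach it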;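 note: signal also drops with host cell toxicity which is not excluded here; 0% = plate median of DMSO wells and 100% = zero luminescence signal; higher percent means less beta-gal luminescence so fewer parasites; stock transfer was 50 nL into about 50 µL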
Ecoli rRNA inh OD600: second read-out of Ecoli rRNA inh, no call of its own (marks repeat the call); OD600 change, %; measured here: OD600 growth;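 optical density of the mix in the first replicate; 0 = DMSO median and -100 = no signal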
Ecoli rRNA inh RFP: further read-out of Ecoli rRNA inh, marked with its call; RFP signal change, %; measured here: RFP humanized mutant strains;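 first replicate; 0 = DMSO median and -100 = no signal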
* marks the source's active call; other numbers are inactive results; i = inactive; ? = inconclusive; nt = no result given. The list is partial; count on the stated rates, not on these rows.

SMILES	Bfl-1 A1 inh	Ecoli rRNA inh	Ecoli rRNA inh OD600	Ecoli rRNA inh RFP	Beta apoptosis	Calb FLC	Vif A3G	MLL AF4-AF9 inh	RanGTP-Impb inh	T cruzi inh
Cc1ccc(C)c(S(=O)(=O)N2CCN(C(=O)C(C)Sc3ccccc3)CC2)c1 (centres undefined)	0.5	-12	-13	-2.8	4	-1	nt	-1.5	2.6	5
CN(C(=O)Nc1ccccc1)n1cnc2ccccc2c1=O	0.5	5	7	0.1	-10	-5	nt	0.8	-1.9	-17
Cc1ccc(/C=C2\SC(=S)N(c3c(C)n(C)n(-c4ccccc4)c3=O)C2=O)cc1	-0.5	-40	-36	-3.5	0	29	6%	16	8.2	1
O=C(NCCN1CCOCC1)C1CCCN(S(=O)(=O)c2ccc(F)cc2)C1 (centres undefined)	2.6	5	3	-0.4	-5	-5	nt	0.5	-0.8	1
CS(=O)(=O)n1nc(-c2ccc(Cl)cc2)nc1SCc1ccccc1	-0.6	nt	nt	nt	3	-9	1%	nt	-4.9	9
COC(=O)\C(C(C)=O)=C(/C=C/C=C/C=C/N(C)C)N(C)C	0.0	nt	nt	nt	-3	-1	2.8µM*	nt	-1.4	-14
C=C(C)C1CC=C(C)/C(=N/NC(=O)c2cccs2)C1 (centres undefined)	-0.8	nt	nt	nt	3	-2	-2%	nt	-4.0	14
CCN/N=C(\Cc1nc2ccccc2[nH]1)c1ccccc1	-1.4	-5	-9	2.3	-7	9	2%	1.2	3.3	-2
CCC(=O)c1ccc(OCc2ccc(C(=O)c3ccccc3)cc2)cc1	-0.1	17	9	2.5	26	0	-187%	-2.5	0.4	33
c1ccc(NC2=Nc3cccc4cccc2c34)cc1	-1.1	-50	-61	-14	-1	24	13%	23	-9.0	4
COc1cccc2c(Cl)c(CCCl)c(C)nc12	-0.2	5	9	1.7	-12	5	nt	4.0	2.2	9
NC(=O)CC(NC(=O)c1ccc(Br)cc1)c1ccc(N2CCN(c3ccc(F)cc3)CC2)c([N+](=O)[O-])c1 (centres undefined)	0.5	11	5	-9.9	-13	-18	nt	nt	-0.5	-9
C=CCn1c(SCC(=O)N(CCOC)c2c(N)n(CCCC)c(=O)[nH]c2=O)nnc1-c1ccc(Cl)cc1	0.1	11	8	0.7	-4	-1	7%	2.1	7.4	-20
CSCCC(N=CC1=C(O)CC(C)(C)CC1=O)C(=O)O (centres undefined)	0.1	nt	nt	nt	3	23	10%	nt	0.6	3
O=C(CN1CCN(C(=O)c2ccc(OCc3cn4ccccc4n3)cc2)CC1)Nc1cccc(F)c1	-0.3	-8	-20	2.3	4	nt	-2%	-5.5	nt	nt
COc1cccc(NC(=S)N(Cc2cccc(Br)c2)CC2CCC(C(=O)O)CC2)c1 (centres undefined)	-0.3	-22	-20	-5.1	0	-20	-16%	-2.1	0.5	2
O=C(NN1C(=O)C2C3C=CC(O3)C2C1=O)c1ccccc1 (centres undefined)	1.4	6	19	-1.9	-7	4	-3%	0.1	0.5	6
COc1ccc(CN2CCc3ccccc3C2)c(OC)c1OC	0.6	nt	nt	nt	-1	6	4%	nt	0.1	-10
CC(=O)N1c2ccc(S(=O)(=O)NCCC(=O)NCc3ccc(N(C)C)cc3)cc2CC1C (centres undefined)	-0.4	2	2	2.3	nt	-5	1%	0.0	5.5	-10
Cc1cc(C)c2ccc(=S)[nH]c2n1	-1.5	24	9	0.1	3	1	7%	4.4	?	-13
COc1ccc(/C=C2/SC(=S)N(CCCC(=O)Nc3ccc(O)cc3)C2=O)cc1	-0.6	-1	-5	-3.8	-13	-3	1%	3.2	1.5	39
O=C(COC(=O)c1cc(Cl)nc(Cl)c1)NC1CCCCCC1	0.2	2	14	1.3	-7	nt	nt	-1.2	nt	nt
O=C(CSc1nnc(CNC(=O)c2ccc(F)cc2)o1)NCc1ccc2c(c1)OCO2	-0.2	5	12	-0.4	-10	nt	5%	-1.7	nt	-9
COc1cc(/C=C(/NC(=O)c2ccccc2)C(=O)Nc2cccc(O)c2)c([N+](=O)[O-])cc1OC	0.5	3	-33	3.2	-14	4	-4%	-6.4	1.5	-11
COc1ccc(N(CC(=O)NCc2ccncc2)S(=O)(=O)c2ccccc2[N+](=O)[O-])c(OC)c1	-0.4	-3	-9	-1.2	2	6	12%	0.0	0.5	-23
O=C(O)CNC(=O)CC1S/C(=N/N=C2\CSC(=O)N2)NC1=O (centres undefined)	-0.8	20	18	-1.8	-10	47	nt	0.5	-2.6	-13
COc1ccc(C(CNC(=O)c2oc3c(Cl)cccc3c2C)N2CCCC2)cc1 (centres undefined)	0.1	-13	-21	2.9	-1	2	nt	11	nt	17
CC(=O)c1c(N2CCOCC2)nc(=O)n(-c2ccccc2)c1C	1.2	6	6	-2.1	-8	-4	4%	2.0	3.1	3
O=C(NCC1CCCO1)C1CCN(C2CCN(C3CCCCCC3)CC2)CC1 (centres undefined)	0.8	14	8	1.0	1	-4	-10%	-0.9	1.8	-6
Cc1nc(C2CCC3C4CCC5=CC(=O)CC[C@]5(C)C4CC[C@]23C)cs1 (some centres undefined)	-0.5	-2	5	0.7	101*	7	?	5.0	2.5	7
C/C(CCN1CCc2nc(-c3ccccc3)c(-c3ccccc3)cc2C1)=N\O[C@@H](C)c1cc(-c2c(C)cc(C)cc2C)no1	0.7	nt	nt	nt	35	-6	9%	nt	-3.7	28
CC12CCC(=O)N1C(C(=O)Nc1nc(-c3ccccc3Cl)cs1)CS2 (centres undefined)	-0.2	-6	-8	2.8	1	8	-3%	1.2	?	5
COc1ccc2c3c(cccc13)C(=O)CC2	0.4	82	-7	31	-20	4	-6%	-0.1	i	5
Cc1ccc(NC(=O)OCCNC(=O)OC(C)C)cc1	1.9	11	12	10	nt	22	-8%	-1.2	?	8
CN1C(=O)C2(NC(=O)c3ccccc3N2C)c2ccccc21 (centres undefined)	0.4	0	4	11	-9	3	29%	-1.7	-3.2	-6
CN(C)S(=O)(=O)c1cccc(NC(=O)COc2ccc3ccccc3c2)c1	0.9	-29	-24	-5.7	-1	nt	-3%	1.7	nt	nt
Cc1cc(NC(=O)C(C)C)ncc1NC(=O)c1ccccn1	-0.7	12	6	1.1	-1	8	-2%	0.2	-0.2	3
O=C(N/N=C/c1cc([N+](=O)[O-])ccc1O)c1c[nH]c2ccccc12	-1.5	12	10	6.1	78*	2	-2%	9.6	-3.2	4
Nn1c(CSc2ccccn2)nc2ccccc2c1=O	-0.2	nt	nt	nt	-3	-3	6%	nt	?	-5
Cc1ccc(OCCC(=O)OCC(=O)N2CCN(S(=O)(=O)c3ccc(C)cc3C)CC2)cc1	-1.8	-1	-10	-2.4	-3	25	6%	-0.8	-5.0	-8
Cc1ccc(C)c(OCCC(=O)N2CCN(S(=O)(=O)c3cc(C)ccc3C)CC2)c1	-0.5	-7	-22	2.0	5	10	5%	-9.0	-1.0	17
Cc1cccc(-c2nc3ccccc3c(=O)n2NC(=O)/C=C/c2ccc([N+](=O)[O-])cc2)c1	0.0	-9	-12	1.6	1	117*	-8%	-0.9	0.2	26
O=C(NCc1cccnc1)C1CCC(c2ccc(Cl)cc2)CC1 (centres undefined)	-0.3	-34	-43	-6.5	-1	7	29%	-2.5	1.0	-9
CC(C)n1cc(C(=O)NC2CC(C)(C)Cc3c2cnn3-c2ccccc2)cn1 (centres undefined)	0.0	5	-4	-1.1	-2	-17	nt	-1.5	4.5	10
Cc1ccccc1C(=O)NNC(=O)C12CC3CC(CC(C3)C1)C2	1.0	0	3	3.6	1	?	4%	-2.5	0.6	1
FC(F)Sc1ccc(N=C2NN=C(c3ccc4c(c3)OCCO4)CS2)cc1	0.0	nt	nt	nt	101*	3	-3%	nt	-3.3	69*
O=S1(=O)CCC(NC(=S)N2CCCCC2)C1 (centres undefined)	1.2	nt	nt	nt	1	2	nt	-1.4	-4.3	-8
COc1ccc(-n2c(Cc3cc(=O)[nH]c(=O)[nH]3)nnc2SCC(=O)N2CCC(C)CC2)cc1	-0.8	3	2	-0.9	4	nt	3%	2.5	nt	nt
COc1ccc(CNc2nc(-c3cccnc3)nn2C(=O)C(C)C)cc1	nt	-6	-7	-0.4	nt	-8	2%	-2.2	?	-10
COc1ccc(-n2nc3cc(C)c(NC(=O)c4cccnc4)cc3n2)cc1	-0.3	nt	nt	nt	3	-3	-7%	nt	-1.6	-6
The list goes on.
SMILES	Bfl-1 A1 inh	Ecoli rRNA inh	Ecoli rRNA inh OD600	Ecoli rRNA inh RFP	Beta apoptosis	Calb FLC	Vif A3G	MLL AF4-AF9 inh	RanGTP-Impb inh	T cruzi inh
CC(=O)c1ccc(NC(=O)C2CCCN2S(=O)(=O)c2ccc(F)cc2)cc1 (centres undefined)	0.9	5	4	-1.0	-1	0	-1%	-0.7	-2.2	-9
Cc1ccc(-n2c(-c3ccccc3)n[nH]c2=S)c(C)c1	0.3	0	-2	-1.8	nt	-4	nt	-3.3	-2.7	-21
CCCC(=O)Nc1ccc2c(c1)nc(CN1CCN(C(C)=O)CC1)n2C	-0.6	nt	nt	nt	-5	0	-5%	nt	5.6	-3
C/C(=N\NC(=O)c1ccn(C)n1)c1ccc(NC(=O)C2CCCC2)cc1	0.1	nt	nt	nt	-2	20	-3%	nt	1.0	-5
COc1ccc(N2C(=O)c3ccc(NC(C)=O)cc3C2=O)cc1	0.8	nt	nt	nt	-13	-7	-5%	nt	-0.6	-9
CCN1C(=O)C2(C(C#N)=C(N)Oc3n[nH]c(-c4ccccc4)c32)c2ccccc21 (centres undefined)	0.1	20	7	3.0	-6	5	0%	nt	5.6	-24
Nc1nnnn1/N=C/c1ccc(O)cc1	-8.1	nt	nt	nt	-6	-14	5%	nt	-3.1	-6
COc1ccc(N2CCN(CCCNC(=O)c3ccc(CS(=O)(=O)c4ccc(OC)cc4)o3)CC2)cc1	-0.2	1	-7	3.3	7	6	nt	15	-0.1	4
O=C(Nc1ccc(F)cc1F)N1CCN(CCc2ccccc2)CC1	-0.8	12	11	0.6	-1	-7	-12%	-7.4	-0.8	-5
O=C(NCCCl)Nc1ccccc1NS(=O)(=O)c1cccs1	0.4	6	15	-1.2	0	nt	-7%	2.2	nt	nt
C=CCn1c(SCc2nc3sc4c(c3c(=O)[nH]2)CCCC4)nc2ccccc2c1=O	-0.1	nt	nt	nt	11	9	-5%	nt	1.7	1
CC(=O)c1cc2c(O)c(O)ccc2o1	0.6	nt	nt	nt	1	-1	27%	nt	-0.3	-2

Bioassay records (PubChem BioAssay)
